# UUG fidelity = yeast start codon fidelity modulation | S. cerevisiae UUG-firefly luciferase reporter, luminescence/redox ratio | hit rate 0.13% among 350,000 | activity score, % at 18.7 µM;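 active = replicate mean at a twofold rise or more, about +100% in these data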;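 note: firefly luciferase made from a UUG start codon reports start codon fidelity; reporter light over untreated wells divided by growth signal over untreated wells; some hits fall short of that in this replicate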
# An asterisk follows results filed as active.
# Start of the listing, in advance:
UUG fidelity	mol
0.3	COc1ccc(NC(=O)N(C)C[C@H]2Oc3c(NC(=O)NC(C)C)cccc3C(=O)N([C@@H](C)CO)C[C@@H]2C)cc1
6.1	O=C(c1ccccc1)N1CC[C@@H]2[C@@H](CO)Nc3ccc(-c4ccc(F)cc4)cc3[C@@H]21

# All compounds of this part (from the top)
UUG fidelity	mol
0.3	COc1ccc(NC(=O)N(C)C[C@H]2Oc3c(NC(=O)NC(C)C)cccc3C(=O)N([C@@H](C)CO)C[C@@H]2C)cc1
6.1	O=C(c1ccccc1)N1CC[C@@H]2[C@@H](CO)Nc3ccc(-c4ccc(F)cc4)cc3[C@@H]21
-8.0	C[C@H](CO)N1C[C@H](C)[C@@H](CN(C)Cc2ccc3c(c2)OCO3)Oc2ccc(NS(=O)(=O)c3cccs3)cc2C1=O
-20.3	C[C@@H]1CN([C@@H](C)CO)C(=O)CCCn2cc(nn2)CO[C@@H]1CN(C)C(=O)Nc1ccc(-c2cccs2)cc1
1.6	C[C@@H]1CN([C@H](C)CO)C(=O)c2cc(NC(=O)CCCN(C)C)ccc2O[C@H]1CN(C)S(=O)(=O)c1ccc(Cl)cc1
-19.6	C/C=C/c1ccc([C@H]2[C@@H](CO)N[C@@H]2CN(C(=O)c2ccccc2F)C(C)C)cc1
5.6	O=C(Nc1ccccc1F)N1CCCCN2[C@@H](CO)[C@@H](c3ccc(/C=C/c4ccccc4)cc3)[C@@H]2C1
12.0	CCC(=O)N1[C@@H](CO)[C@H](c2ccc(C3=CCCC3)cc2)[C@@H]1CNC(=O)CN(C)C
-14.1	CN1[C@@H]2c3ccc(-c4ccccc4)c(=O)n3C[C@@H]2[C@@H](CO)[C@@H]1C(=O)Nc1ccccc1
-0.9	C[C@@H]1CN([C@@H](C)CO)C(=O)c2cc(NS(C)(=O)=O)ccc2O[C@H]1CN(C)C
-5.0	CO[C@H]1CN(C)C(=O)c2ccc(NC(C)=O)cc2OC[C@@H](C)N(C(=O)C2CCOCC2)C[C@@H]1C
10.4	CO[C@@H]1CN(C)C(=O)c2ccc(NC(=O)Nc3ccc4c(c3)OCO4)cc2OC[C@@H](C)N(C(C)=O)C[C@H]1C
-7.8	CCCNC(=O)Nc1ccc2c(c1)C(=O)N(C)C[C@H](OC)[C@@H](C)CN(C(=O)C1CCOCC1)[C@@H](C)CO2
1.1	OC[C@@H]1[C@H](c2ccc(Br)cc2)[C@@H]2CN(Cc3cncnc3)CCCCN12
-4.7	COc1ccc(CN(C)C[C@H]2Oc3ccc(NC(=O)Nc4c(C)noc4C)cc3CC(=O)N([C@H](C)CO)C[C@H]2C)cc1
25.5	CC(C)NC(=O)N(C)C[C@H]1Oc2ccc(NS(=O)(=O)c3ccc(F)cc3)cc2CC(=O)N([C@H](C)CO)C[C@H]1C
-1.8	COc1cccc(S(=O)(=O)Nc2ccc3c(c2)C(=O)N(C)C[C@@H](OC)[C@H](C)CN(Cc2ccccc2F)[C@H](C)CO3)c1
-19.0	CCNC(=O)C[C@@H]1CC[C@@H]2[C@H](COC[C@H](O)CN2C(=O)CC)O1
14.0	Cc1ccc(S(=O)(=O)N(C)C[C@@H]2Oc3ccc(NC(=O)NC4CCCCC4)cc3CC(=O)N([C@H](C)CO)C[C@H]2C)cc1
-6.0	CCCNC(=O)Nc1ccc2c(c1)C(=O)N(C)C[C@@H](OC)[C@H](C)CN(Cc1cccnc1)[C@H](C)CO2
8.7	C[C@@H]1CN([C@H](C)CO)C(=O)CCCn2cc(nn2)CO[C@H]1CN(C)Cc1ccc(C(=O)Nc2ccccc2N)cc1
-27.0	Cc1noc(C)c1NC(=O)N(C)C[C@@H]1Oc2ccc(NC(=O)c3ccncc3)cc2C(=O)N([C@H](C)CO)C[C@H]1C
-3.5	Cc1noc(C)c1NC(=O)N(C)C[C@@H]1Oc2ccc(NS(=O)(=O)c3ccc(F)cc3)cc2C(=O)N([C@H](C)CO)C[C@@H]1C
9.2	CC(=O)N1[C@@H]2Cn3c(ccc(C4=CCCC4)c3=O)[C@H]1[C@@H](C(=O)NC1CCCCC1)[C@@H]2CO
-9.2	COc1cccc(-c2ccc([C@H]3[C@H](CO)N4CCCCN(C(=O)c5ccc(F)cc5)C[C@@H]34)cc2)c1
11.9	CC(C)C#Cc1ccc([C@H]2[C@H](CO)N3CCCCN(C(=O)NC(C)C)C[C@@H]23)cc1
6.6	C[C@H](CO)N1C[C@H](C)[C@@H](CN(C)CC2CCCCC2)Oc2ccc(NC(=O)NC3CCCCC3)cc2C1=O
3.5	C[C@@H]1CN([C@@H](C)CO)C(=O)c2c(c3ccccc3n2C)-c2ccccc2CO[C@H]1CN(C)S(=O)(=O)c1ccccc1
-2.7	CO[C@@H]1CN(C)C(=O)c2ccc(NC(=O)c3cccc(F)c3)cc2OC[C@@H](C)N(C)C[C@@H]1C
-9.4	CS(=O)(=O)N1CCCCN2[C@H](C1)[C@@H](c1ccc(-c3cccc(C#N)c3)cc1)[C@@H]2CO
9.4	CO[C@@H]1CN(C)C(=O)c2ccc(NS(=O)(=O)c3ccccc3C)cc2OC[C@H](C)N(S(C)(=O)=O)C[C@H]1C
-8.7	CCCNC(=O)N1C[C@H]2[C@@H](c3ccccc31)[C@H](CO)N2Cc1cc(F)ccc1F
7.2	CCC(=O)N1C[C@@H](C)[C@H](OC)CN(C)C(=O)c2ccc(NC(=O)Nc3ccccc3)cc2OC[C@H]1C
47.3	CO[C@@H]1CN(C)C(=O)c2ccc(NS(C)(=O)=O)cc2OC[C@@H](C)N(C)C[C@H]1C
5.0	CCC(=O)Nc1ccc2c(c1)OC[C@@H](C)N(C(=O)C1CCC1)C[C@@H](C)[C@@H](OC)CN(C)C2=O
-18.6	COc1ccccc1CN1CC[C@@H]2[C@H](CO)Nc3ccc(-c4cccc(F)c4)cc3[C@@H]21
-5.8	C[C@H](CO)N1C[C@H](C)[C@@H](CN(C)Cc2ccc(C(=O)Nc3ccccc3N)cc2)Oc2ccc(NC(=O)Nc3ccc(C(F)(F)F)cc3)cc2C1=O
-0.2	C[C@H](CO)N1C[C@H](C)[C@H](CN(C)Cc2ccc(Oc3ccccc3)cc2)Oc2c(NS(=O)(=O)c3cn(C)cn3)cccc2C1=O
-4.0	CC(C)NC(=O)Nc1ccc2c(c1)CC(=O)N([C@H](C)CO)C[C@H](C)[C@H](CN(C)Cc1ccc(C(=O)O)cc1)O2
-5.8	C[C@@H]1CN([C@@H](C)CO)C(=O)Cc2cc(NC(=O)Cc3ccccc3)ccc2O[C@H]1CN(C)C(=O)Nc1ccc(F)cc1
-4.6	CCCNC(=O)N1[C@H](CO)[C@H](c2ccc(C3=CCCC3)cc2)[C@H]1CNC(C)=O
-5.6	Cc1cc(C(=O)Nc2cccc3c2O[C@@H](CN(C)S(=O)(=O)c2c(C)noc2C)[C@@H](C)CN([C@H](C)CO)C3=O)n(C)n1
34.9	COc1ccccc1C#Cc1ccc([C@@H]2[C@H](CO)N3CCCCN(C(=O)C4CCC4)C[C@@H]23)cc1
6.1	C/C=C/c1ccc([C@@H]2[C@@H](CN(CC)C(C)=O)N(S(C)(=O)=O)[C@H]2CO)cc1
-5.1	C[C@H](CO)N1C[C@H](C)[C@H](CN(C)C(=O)Nc2ccc(F)cc2)Oc2ccc(NC(=O)Cc3ccccc3)cc2CC1=O
0.8	CC(C)NC(=O)Nc1cccc2c1O[C@H](CN(C)Cc1ccc(C(F)(F)F)cc1)[C@H](C)CN([C@@H](C)CO)C2=O
7.4	O=C(C[C@@H]1CC[C@@H]2[C@H](COC[C@@H](O)CN2Cc2ccccc2F)O1)N[C@H]1CCN(Cc2ccccc2)C1
5.6	C[C@H]1CN([C@@H](C)CO)C(=O)c2cccc(NS(=O)(=O)c3ccccc3)c2O[C@@H]1CN(C)Cc1ccc(-c2ccccc2)cc1
-1.6	CCCNC(=O)C[C@H]1C[C@H]2c3cc(NC(=O)c4ccc5c(c4)OCO5)ccc3O[C@H]2[C@H](CO)O1
30.0	C[C@H]1CN([C@@H](C)CO)C(=O)Cc2cc(NC(=O)NC3CCCCC3)ccc2O[C@@H]1CN(C)Cc1ccc2c(c1)OCO2
-3.5	C[C@@H]1CN([C@H](C)CO)C(=O)c2cccc(NS(=O)(=O)c3ccc(Cl)cc3)c2O[C@H]1CN(C)C(=O)Nc1ccc(C(F)(F)F)cc1
4.6	C[C@H](CO)N1C[C@H](C)[C@@H](CN(C)C(=O)Nc2cccc3ccccc23)Oc2ccc(NC(=O)Nc3ccc4c(c3)OCO4)cc2C1=O
-9.5	CNC(=O)C[C@H]1CC[C@H]2[C@@H](COC[C@H](O)CN2C(=O)c2ccccn2)O1
-10.2	CO[C@H]1CN(C)C(=O)c2cc(NC(=O)Nc3ccc(F)cc3)ccc2OC[C@H](C)NC[C@@H]1C
5.8	C[C@H](CO)N1C[C@H](C)[C@@H](CN(C)C(=O)Nc2ccccc2)Oc2c(NS(=O)(=O)c3ccc(Cl)cc3)cccc2C1=O
23.3	C[C@H]1CN([C@@H](C)CO)C(=O)c2cc(NC(=O)Cn3cnnn3)ccc2O[C@H]1CN(C)Cc1ccc(C(=O)O)cc1
-8.5	CCCNC(=O)N1C[C@H](C)[C@@H](OC)CN(C)C(=O)c2cc(NC(=O)CC)ccc2OC[C@@H]1C
1.9	CC1C=NC(S(=O)(=O)N2CC[C@@H]3[C@@H](CO)N(C)c4ccc(-c5cccc(F)c5)cc4[C@@H]32)=N1 (stereo partly drawn)
-1.5	CO[C@H]1CN(C)C(=O)c2cc(NC(=O)Nc3ccccc3F)ccc2OC[C@@H](C)NC[C@@H]1C
-3.7	CCCC#Cc1ccc([C@H]2[C@@H](CO)N3CCCCN(S(=O)(=O)c4ccccc4C)C[C@H]23)cc1

# Continued.
UUG fidelity	mol
31.6	COc1ccc(CNC(=O)C[C@H]2C[C@H]3c4cc(NS(=O)(=O)c5ccc(F)cc5)ccc4O[C@H]3[C@@H](CO)O2)cc1
-5.9	C[C@@H]1CN([C@@H](C)CO)C(=O)CCCn2cc(nn2)CO[C@@H]1CN(C)Cc1ccccc1C(=O)O
11.0	Cc1ccccc1-c1ccc([C@@H]2[C@@H](CO)N3CCCCN(S(C)(=O)=O)C[C@@H]23)cc1
-39.5	COc1ccc(CN(C)C[C@H]2Oc3c(NC(=O)C4CC4)cccc3C(=O)N([C@@H](C)CO)C[C@H]2C)cc1
1.6	CN(C)CC(=O)Nc1ccc2c(c1)[C@@H]1C[C@H](CC(=O)N3CCN(C)CC3)O[C@@H](CO)[C@@H]1O2
-9.4	C[C@H]1CN([C@@H](C)CO)C(=O)Cc2cc(NC(=O)Cc3ccccc3)ccc2O[C@H]1CN(C)C
18.5	C[C@H]1CN([C@@H](C)CO)C(=O)c2cc(NS(=O)(=O)c3cccs3)ccc2O[C@H]1CN(C)C(=O)NC1CCCCC1
20.3	CC(C)(O)C#Cc1ccc([C@H]2[C@H]3CN(C(=O)c4cccc(F)c4)CCCCN3[C@H]2CO)cc1
17.0	C[C@@H](O)C#Cc1ccc([C@@H]2[C@H]3CN(CC4CCOCC4)CCCCN3[C@H]2CO)cc1
-2.0	COC(=O)C[C@@H]1CC[C@H]2[C@H](COc3ccc(NC(=O)C4CCOCC4)cc3C(=O)N2C)O1
0.0	CO[C@@H]1CN(C)C(=O)c2ccc(NS(C)(=O)=O)cc2OC[C@@H](C)N(CC2CC2)C[C@H]1C
14.8	CCC(=O)N1[C@@H](CO)[C@@H](c2ccccc2)[C@@H]1CN(CC)C(=O)c1cccc(F)c1
-2.6	CC(C)NC(=O)N(C)C[C@H]1Oc2ccc(NC(=O)Nc3ccccc3)cc2CC(=O)N([C@@H](C)CO)C[C@H]1C
-3.3	C[C@@H]1CN([C@H](C)CO)C(=O)Cc2cc(NC(=O)Nc3ccccc3)ccc2O[C@H]1CN(C)S(C)(=O)=O
-3.1	CN1c2ccc(-c3ccc(C#N)cc3)cc2[C@@H]2[C@@H](CCN2C(=O)CC2CC2)[C@@H]1CO
-3.2	O=C(Nc1ccccc1Cl)N1C[C@@H]2[C@H](c3ccccc31)[C@H](CO)N2Cc1ccccc1
2.6	COc1cccc(NC(=O)N(C)C[C@H]2OCc3cnnn3CCCC(=O)N([C@@H](C)CO)C[C@@H]2C)c1
4.5	C[C@@H]1CN([C@@H](C)CO)C(=O)c2cc(N(C)C)ccc2O[C@H]1CN(C)S(=O)(=O)c1ccc(Cl)cc1
-11.6	C[C@@H]1CN([C@H](C)CO)C(=O)Cc2cc(NS(=O)(=O)c3ccccc3)ccc2O[C@H]1CN(C)CC1CC1
-0.6	Cc1ccccc1-c1ccc([C@@H]2[C@H](CO)N3CCCCN(CC4CCOCC4)C[C@@H]23)cc1
6.1	COc1ccc(CN(C)C[C@H]2Oc3c(NC(=O)C4CCOCC4)cccc3C(=O)N([C@H](C)CO)C[C@@H]2C)cc1
-18.0	O=C(C1CCC1)N1CC[C@@H]2[C@H](CO)Nc3ccc(C#Cc4cccc(F)c4)cc3[C@@H]21
14.8	CCCNC(=O)N1[C@@H](CO)[C@@H]2c3ccccc3N(C(=O)NC(C)C)C[C@@H]21
-4.2	Cc1ccc(S(=O)(=O)Nc2ccc3c(c2)CC(=O)N([C@H](C)CO)C[C@@H](C)[C@H](CN(C)C(=O)NC(C)C)O3)cc1
11.4	CO[C@H]1CN(C)C(=O)c2cc(NC(=O)C3CC3)ccc2OC[C@@H](C)N(CC2CC2)C[C@H]1C
29.8	COc1ccccc1C#Cc1ccc([C@H]2[C@H](CO)N3CCCCN(C(=O)C4CCC4)C[C@@H]23)cc1

# A different layout for part of the listing above:
Structure	UUG fidelity
C[C@H](CO)N1C[C@H](C)[C@@H](CN(C)Cc2ccc(C(=O)Nc3ccccc3N)cc2)Oc2ccc(NC(=O)Nc3ccc(C(F)(F)F)cc3)cc2C1=O	-5.8
Cc1ccccc1-c1ccc([C@@H]2[C@@H](CO)N3CCCCN(S(C)(=O)=O)C[C@@H]23)cc1	11.0
Cc1ccccc1-c1ccc([C@@H]2[C@H](CO)N3CCCCN(CC4CCOCC4)C[C@@H]23)cc1	-0.6
C[C@@H](O)C#Cc1ccc([C@@H]2[C@H]3CN(CC4CCOCC4)CCCCN3[C@H]2CO)cc1	17.0
CCC(=O)N1[C@@H](CO)[C@@H](c2ccccc2)[C@@H]1CN(CC)C(=O)c1cccc(F)c1	14.8

# Source: PubChem BioAssay (Broad Institute)

# These rows are one share of the data (hit frequency here may not be typical).
